Compound activity as filed in PubChem.
YopH PTP inh: YopH (Yersinia) phosphatase inhibition; fluorescence Ex485/Em525; inhibition, %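 (about 10 µM by stock and volumes)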; 140,000 tested, 0.16% active; AID 898;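 active = inhibition of 50% or more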;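 note: controls were vehicle for no effect and minimum signal wells for full effect; inactives centre near -20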
Arbovirus anti: arbovirus infection inhibition | 200,000 tested, 0.37% active | inhibition, % at 10 µM | AID 1251 | arbovirus infection cell-based antiviral screen;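 active = inhibition from about 30%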;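 note: bluetongue infection of BSR cells; cell survival read as ATP light after 72 h; 0% = infected wells without compound and 100% = uninfected wells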
RecA splice inh: Mtb RecA intein splicing inhibition | 290,000 tested, 0.75% active | AID 2221 | cell-free RecA intein splicing, fluorescence | inhibition, %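 (about 9 µM by stock and volumes)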 | P9WHJ3; in the data active = inhibition above about 30%; inconclusive = no clear call, values can overlap the other calls;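 note: 0% = vehicle wells and 100% = reference inhibitor control wells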
Target sequence (P9WHJ3 whole entry, looked up, canonical isoform): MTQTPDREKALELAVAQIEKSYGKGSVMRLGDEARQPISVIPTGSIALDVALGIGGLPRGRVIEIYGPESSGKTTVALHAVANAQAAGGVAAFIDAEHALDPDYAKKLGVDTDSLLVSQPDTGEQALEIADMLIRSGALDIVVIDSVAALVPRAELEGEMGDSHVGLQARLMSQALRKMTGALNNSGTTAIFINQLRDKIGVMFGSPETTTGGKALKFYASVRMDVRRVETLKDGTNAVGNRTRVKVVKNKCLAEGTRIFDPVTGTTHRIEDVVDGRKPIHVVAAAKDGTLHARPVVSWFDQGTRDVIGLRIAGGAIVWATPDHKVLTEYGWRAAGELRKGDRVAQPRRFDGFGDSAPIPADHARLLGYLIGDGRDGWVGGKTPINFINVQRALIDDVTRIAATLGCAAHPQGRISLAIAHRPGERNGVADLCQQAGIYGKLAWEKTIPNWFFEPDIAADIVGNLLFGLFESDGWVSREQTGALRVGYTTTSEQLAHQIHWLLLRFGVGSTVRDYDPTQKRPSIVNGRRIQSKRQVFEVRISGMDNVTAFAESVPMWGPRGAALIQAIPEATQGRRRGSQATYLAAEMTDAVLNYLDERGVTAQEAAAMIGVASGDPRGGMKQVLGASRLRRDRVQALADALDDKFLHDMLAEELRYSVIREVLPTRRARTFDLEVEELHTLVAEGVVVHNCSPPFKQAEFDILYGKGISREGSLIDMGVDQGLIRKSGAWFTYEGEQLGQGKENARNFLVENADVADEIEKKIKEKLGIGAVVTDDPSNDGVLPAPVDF
Mtb bLac sens: beta-lactam sensitization of Mtb H37Rv; M. tuberculosis H37Rv growth with meropenem, percent inhibition; hits of this screen are not shown here; inhibition, % at 25 µM; 330,000 tested, 0.27% active; AID 434955;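 active = about 74% or more and at least 40 points above the plate without the antibiotic, then above 30% in a dose series; inconclusive = first-round hits that could not be retested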;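 note: growth measured after seven days incubation then overnight dye step; 0% = bacteria only wells and 100% = bacteria with antibiotic; twin plates without the antibiotic show which effects depend on it; some results filed as inactive read as strong as hits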
Mtb H37Rv: M. tuberculosis H37Rv growth inhibitors, H37Rv strain (AID 1626); inhibition, % at 10 µM; hits with a dose series show IC50 in µM; M. tuberculosis H37Rv growth inhibition; higher % means a stronger effect; 220,000 tested, 0.95% active;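 active = confirmed in a dose series; inconclusive = inhibition above 80% but not taken into the dose series; inactive = below 80% or under 30% at every dose of the series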;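 note: bacteria incubated seven days before Alamar blue readout; 0% = bacteria only wells and 100% = bacteria with antibiotic wells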
Arbovirus anti repeat: also measured in Arbovirus anti; calls as there; inhibition, %; measured here: 10K subset replicate screen; many hits read low in the repeat;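 first of two repeat runs on a subset; 0% = infected and 100% = uninfected wells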
Starred values were filed as active, the others as inactive; ? = inconclusive; . = not tested or not shown. Only part of the results is shown (hit frequency here may not be typical).

SMILES | YopH PTP inh | Arbovirus anti | RecA splice inh | Mtb bLac sens | Mtb H37Rv | others
Cc1cc(C)c[n+](CC(=O)c2ccc(NC(=O)c3ccccc3)cc2)c1 | . | 3.5 | -5.4 | -2.1 | -1.9%
CSc1ccc(C(=O)/C=C/c2ccc(N)cc2)cc1 | -11.4 | -37.4 | -3.0 | 97.7 | ?
COc1ccccc1N1CCN(C2CCCN(S(=O)(=O)c3ccc(C)cc3)C2)CC1 (centres undefined) | . | . | 3.8 | 1.1 | .
COc1ccc2c(c1)c(=O)oc1c(C)c(OCc3cc(C(=O)O)oc3C)ccc12 | . | 4.2 | 0.8 | 21.8 | -0.3%
COc1ccc(S(=O)(=O)N/N=C\c2ccc3c(c2)OCO3)c(OC)c1 | . | . | -0.8 | 4.0 | .
Cc1cc(C)c(C)c(S(=O)(=O)N2CCCCC2C(=O)O)c1C (centres undefined) | . | 9.5 | 0.4 | 8.1 | -3.4%
C[C@@H]1CC=C[C@H]2[C@H]1C(=O)N(Cc1ccccc1)[C@H]2c1ccc(F)c(Br)c1 | . | . | 32.4* | . | -3.9%
Cc1ccc(S(=O)(=O)c2ccccc2)cc1S | . | -9.4 | 8.7 | 4.9 | -0.8%
O=C(O)CCN1C(=O)c2ccc(NC(=O)CSc3ccc(Cl)cc3)cc2C1=O | . | . | -0.1 | -3.4 | .
O=C(/C=C/c1c[nH]c2ccccc12)c1c(O)n(CCc2ccccc2)c(=O)[nH]c1=O | . | . | -0.5 | 71.8 | 22.5%
Cc1[nH]c(=O)[nH]c1C(=O)CCCCC(=O)O | -46.0 | -1.1 | -0.2 | 3.3 | -2.1%
CCCc1nnc2n1N=C(c1ccc(C)cc1)CS2 | . | . | -2.1 | -6.7 | .
CCn1c(CSc2nc3ccccc3s2)nnc1SCC(=O)OC(C)(C)C | 0.2 | 18.2 | 0.6 | -15.6 | -5.1%
CN(C)CCCNc1nc(-c2ccccc2)c2c(c1C#N)CC(C)(C)OC2 | . | . | -3.5 | -5.2 | -1.5%
Cc1ccc(NC(=S)NC(C)(C)C)c([N+](=O)[O-])c1 | . | . | -0.4 | -2.2 | 9.2%
Cn1c(COc2ccccc2)nnc1SCC(=O)Nc1ccc2c(c1)OCO2 | -39.1 | -34.0 | -1.3 | 17.8 | 39.2%
COc1ccc(/C=C2\SC(=O)N(CCNC(=O)Cc3coc4cc(C)ccc34)C2=O)cc1OC | -14.0 | -6.4 | 2.6 | 6.0 | 3.1%
CC(C)CN(C(=O)COC(=O)c1ccc([N+](=O)[O-])s1)c1c(N)n(Cc2ccccc2)c(=O)[nH]c1=O | . | . | -2.9 | 13.8 | .
COc1cccc(NC(=O)C2CCN(S(C)(=O)=O)CC2)c1 | -24.4 | -6.3 | -1.4 | 0.0 | -3.7%
CCOc1ccc2oc(=O)cc(CN3CCN(Cc4ccccc4)CC3)c2c1 | . | . | 0.1 | -0.4 | .
CC(C)N1CCc2c(sc(NC(=S)NC(=O)c3ccccc3)c2C#N)C1 | 6.3 | -8.8 | . | 89.3 | 3.5%
COc1ccccc1OCc1ccc(C(=O)NC2CCCCC2)o1 | . | . | 4.6 | -3.2 | .
Nc1ncc(N=Nc2cc(C(=O)O)ccc2Cl)s1 | . | . | . | 2.2 | 17.5%
CCNC(=S)NC1CC2CCCC(C1)N2CCc1ccccc1 (centres undefined) | . | . | 0.8 | -6.0 | .
CCOc1ccc(S(=O)(=O)Nc2ccc(C(=O)N(C)CC(=O)Nc3ccc(OC)cc3)cc2)cc1 | . | . | -2.5 | -10.0 | .
The listing continues:
SMILES | YopH PTP inh | Arbovirus anti | RecA splice inh | Mtb bLac sens | Mtb H37Rv | others
Cc1ccc(OCC(=O)O/N=C(\N)c2cccc([N+](=O)[O-])c2)cc1C | . | . | 11.6 | -3.4 | 6.7%
CCn1c(COc2ccc(C(C)C)cc2)nnc1SCC(=O)Nc1nccs1 | -17.0 | 2.2 | 5.3 | -4.8 | -3.3%
Cc1ccc(S(=O)(=O)N(C)c2ccc(OCC(=O)Nc3nc(-c4ccccc4)cs3)cc2)cc1 | -31.7 | 4.3 | 0.3 | 2.2 | 10.1%
COC(=O)c1cc(NC2c3ccccc3C(=O)N2c2cccnc2)cc(C(=O)OC)c1 (centres undefined) | -19.4 | -1.5 | -1.2 | -6.6 | -6.1% | Arbovirus anti repeat=0.6
O=C(NNC(=O)c1ccccc1O)c1ccco1 | . | -8.2 | -6.7 | 1.3 | -4.8%
CC(=O)Nc1ccc(NC(=O)C2CCCN2C(=O)Nc2ccc(F)c([N+](=O)[O-])c2)cc1 (centres undefined) | . | 4.1 | 0.7 | -2.1 | 4.9%
Cc1cc(NC(=O)C(C)Oc2ccc(C(C)(C)C)cc2)no1 (centres undefined) | . | . | -0.1 | 2.4 | .
C=CCn1c(SCC(=O)O)nnc1-c1cccc(Cl)c1 | -2.6 | 5.6 | 0.7 | 3.5 | -3.5%
Cc1ccccc1NC(=O)CC(=O)c1ccccc1 | . | . | 2.4 | 5.5 | .
Cc1cc(NC(=O)Cn2cnc3c(cnn3C(C)(C)C)c2=O)no1 | -15.7 | 1.7 | -0.6 | -4.4 | 1.0%
CCOc1ccccc1NC(=O)c1cc(C(=O)Nc2ccccc2OCC)cc(N2C(=O)CCC2=O)c1 | . | 9.8 | 0.5 | 4.5 | -2.3%
O=c1c2ccccc2nc(/C=C/c2ccc(Cl)cc2)n1CCO | . | . | -52.8 | 6.9 | .
O=C(Nc1cc(C(F)(F)F)ccc1-n1cncn1)c1ccc([N+](=O)[O-])o1 | . | . | -3.1 | 99.7 | .
Cc1nc2ccccc2c(=O)n1N | -40.6 | 3.1 | -0.4 | -7.8 | -7.0%
CCOc1ccc(C)cc1S(=O)(=O)NC1CCCCCC1 | . | . | -0.5 | -11.8 | .
COc1ccc(NC(=O)Cc2c(C(=O)O)n(C)c3ccccc23)cc1OC | . | 10.6 | 0.2 | 2.9 | 2.0%
CCOC(=O)C1CCN(C(=O)c2cccnc2)CC1 | -41.7 | 7.6 | -2.4 | -7.1 | -3.4%
COc1ccc(CN(C(=O)CSc2nnc(-c3ccccc3C)o2)c2ccc(F)cc2)cc1 | 7.1 | -12.3 | 40.1* | 54.4 | -0.2%
Cc1cc(=O)oc(C)c1C(=O)N[C@@H]1CCCCNC1=O | -52.8 | 2.0 | -1.6 | -7.2 | -9.2%
CNCc1ccccc1Sc1ccc(OC)c(OC)c1 | -4.2 | 2.4 | -1.7 | 2.1 | 3.5%
Brc1cccc(CNCC2CCCO2)c1 (centres undefined) | . | . | -1.5 | -5.3 | .
CCOC(=O)C1(Cc2cccc(OC)c2)CCN(Cc2csc(C(C)=O)c2)CC1 | . | -1.7 | -1.7 | 2.7 | 1.3%
Cc1nc(-c2ccccn2)nc(N(C)c2ccccc2)c1Cl | . | . | -0.9 | 85.0 | .
O=C(O)c1ccc2c3c(ncnc13)-c1ccccc1C2=O | -22.3 | -27.5 | 43.6* | 66.3 | .
S=C(Nc1ccccc1)N1N=C(c2cccs2)CC1c1cccs1 (centres undefined) | . | 1.3 | 6.4 | 22.7 | 16.1%
Next entries follow:
SMILES | YopH PTP inh | Arbovirus anti | RecA splice inh | Mtb bLac sens | Mtb H37Rv | others
CC1=CC(c2ccc(Cl)cc2)n2nc(NC(=O)CCC(=O)O)nc2N1 (centres undefined) | . | . | -64.7 | 0.8 | .
Cc1ccc(O)c(-c2[nH]ncc2C(=O)c2ccc(Cl)cc2)c1 | . | . | 2.7 | -4.5 | .
Nc1c(C(=O)c2ccccc2O)cnn1-c1ccc(S(=O)(=O)N2CCOCC2)cc1[N+](=O)[O-] | . | 2.4 | -3.1 | -0.7 | 2.4%
O=C(O)c1ccc2nc3c(nc2c1)-c1ccccc1C3=O | . | -8.8 | 22.0 | -0.1 | -5.8%
O=C(NC1CCCCC1)c1ccc(-c2ccccc2[N+](=O)[O-])o1 | . | . | 9.8 | -4.3 | .
CCOC(=O)c1c(NC(=O)C(C)N2CCN(S(=O)(=O)c3cccs3)CC2)sc2c1CCC(C)C2 (centres undefined) | 0.0 | -11.0 | 1.1 | -3.3 | -3.9%
O=C(Nc1cccnc1)c1cc(Cl)ccc1Cl | . | . | -0.3 | -3.9 | .
CN(C(=O)CN1C(=O)c2cc(Cl)c(Cl)cc2C1=O)C1CCS(=O)(=O)C1 (centres undefined) | . | . | 3.9 | -4.7 | .
COc1ccc(NC(=O)C2CCCN(S(=O)(=O)c3c(C)n[nH]c3C)C2)cc1 (centres undefined) | -8.7 | 5.7 | 1.6 | -6.6 | 6.7%
CN1CCC(NC(=S)Nc2cccc([N+](=O)[O-])c2)CC1 | . | -7.2 | 5.2 | 0.4 | -3.9%
Cc1ccc2c(C(=O)CN3CCOCC3)c(C)[nH]c2c1 | 2.6 | -0.2 | -1.0 | 1.2 | 8.7%
OCCN(Cc1ccccc1)CC1CC2C=CC1C2 (centres undefined) | -26.6 | 1.9 | -0.2 | -6.2 | -3.9%
O=S(=O)(Cc1ccccc1Cl)Nc1ccccn1 | 28.8 | 1.5 | -4.2 | 5.0 | -8.7%
COc1cc2c(cc1OC)CN(CC(=O)Nc1ccc3c(c1)OCO3)CC2 | -93.5 | -1.6 | -5.4 | -1.1 | -3.4%
Cc1ccc(CNC(=O)CN2C(=O)NC(C)(c3ccc(Cl)cc3)C2=O)cc1 (centres undefined) | . | . | -0.5 | -1.0 | .
CN(c1ccc(C(=O)NCc2ccc3c(c2)OCO3)cc1)S(=O)(=O)c1ccccc1 | . | -11.7 | 6.8 | -6.9 | 4.8%
Cc1cccc(NC(=O)c2ccccc2Br)n1 | -47.0 | -7.9 | -0.5 | 1.7 | 2.5% | Arbovirus anti repeat=-1.6
O=C(CCCOc1ccc(Cl)cc1Cl)N/N=C/c1cccc([N+](=O)[O-])c1 | -35.8 | -11.1 | 1.3 | 18.3 | 18.6%
CCOC(=O)C1=C(c2ccccc2)NC(=S)NC1c1cccc([N+](=O)[O-])c1 (centres undefined) | -19.9 | 9.2 | -8.4 | 5.5 | 0.5%
CCN(CC(=O)NCc1ccc(Cl)cc1)C(=O)/C=C/c1ccc(Cl)c([N+](=O)[O-])c1 | . | . | 0.2 | 3.6 | .
CC(=O)Nc1ccc(NC(=O)C2CC(=O)N(Cc3ccccc3)C2)cc1 (centres undefined) | . | 10.5 | 0.9 | -7.8 | .
Cc1cc(Br)ccc1NC(=O)CCN1C(=O)c2ccncc2C1=O | -26.0 | 1.7 | -1.2 | 1.8 | 3.5%
Nc1ccc(N2CCN(c3ccccc3)CC2)c(F)c1 | . | -25.5 | 2.4 | 0.5 | 1.6%
COc1ccc(CNC(=O)COC(=O)CCS(=O)(=O)c2ccc(C)cc2)cc1OC | . | . | -2.3 | -7.3 | .
COC(C[C@@H](O)C[C@@H](O)[C@@H](C)OCc1ccccc1)OC | . | . | -0.7 | -6.1 | -4.7%
Additional results:
SMILES | YopH PTP inh | Arbovirus anti | RecA splice inh | Mtb bLac sens | Mtb H37Rv | others
C#CC[N+](C)(C)CCCCCCCCCCCC | -7.7 | -36.6 | 1.3 | 19.4 | 7.1%
CC(Sc1nc(N)cc(=O)[nH]1)C(=O)NC1CCCCC1 (centres undefined) | -28.0 | 9.0 | . | 9.0 | -13.1%
CCc1cccc2c(C(=O)COC(=O)/C=C/c3ccccc3OC)c[nH]c12 | -21.6 | -5.0 | 13.6 | 6.2 | -2.6%
C=C1N(c2ccc(Cl)cc2)C(=O)OC1(C)C | 13.4 | 2.1 | -0.1 | -14.2 | -0.7%
N/C(=N\OC(=O)CCN1C(=O)c2ccccc2C1=O)c1ccccn1 | . | 1.7 | 0.9 | 6.5 | -3.4%
CCC(CC)NC(=O)c1cccc(Oc2ccccc2)c1 | . | 1.5 | 3.0 | -2.2 | 7.3%
COc1ccc(CCNC(=O)CC(C)S(=O)(=O)c2ccc3c(c2)NC(=O)CO3)cc1OC (centres undefined) | . | . | -0.8 | -6.9 | .
COc1ccc(Cc2nc(C(=O)Nc3ccc(OC)cc3)cs2)cc1 | -12.8 | -11.8 | 7.1 | 75.2 | 6.2%
Cc1nnc(SCC(=O)N2CCOCC2)n1C | -40.2 | 8.1 | -1.3 | -6.5 | -2.9% | Arbovirus anti repeat=-0.8
